A488 autofl – A488 region autofluorescence; compound autofluorescence, A488 spectral region, dye equivalency; stronger effect = higher value; hit rate 0.1% among 59,000; max dye equivalency, M; active = above 10 nM dye equivalent; inconclusive = 1 to 10 nM; inactive = 1 nM or less; about half of its hits are not listed in these tables;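 further: highest value over a series up to 38 µM; compound alone in buffer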
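Intrinsic compound fluorescence is measured in 100 mM Tris buffer at pH 8.0 following 15 min incubation at room temperature. Intensities at 480 nm excitation/540 nm emission are calibrated to an on-plate A488 concentration series, giving dye-equivalent concentrations.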
AID923 – qHTS Assay for Allosteric/Competitive Inhibitors of Caspase-1: Spectroscopic Profiling in AFC Spectral Region; Potency, µM (doses to about 57.5 µM), without a hit: at the top dose fluorescence increase, actives largely listed as activators; compound fluorescence, AFC spectral region (405/520 nm); almost no hit is shown here; hit rate 1.1% among 75,000; active means well fitted activation curve with a large enough effect; inconclusive means small, poorly fitted or top-dose-only effect;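 further: potency means the concentration at half of the fitted maximal effect; 0% is about no effect; scaled to a free AFC standard on each plate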
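Baseline compound fluorescence (AFC region, 405 nm ex/520 nm em) taken from the intercept of kinetic reads with 50 nM caspase-1 and 5 uM Ac-WEHD-AFC; normalized to an on-plate AFC standard curve; compounds titrated up to 57 uM.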
A647 autofl – A647 region autofluorescence; max dye-equivalent concentration, M; AID 592; Compound fluorescence, A647 channel (570/671 nm), Tris buffer; 59,000 tested, under 10 active; active means above 1 µM dye equivalent; inconclusive means 0.1 to 1 µM; inactive means 0.1 µM or less;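 further: values scaled relative to a standard on each plate; highest value over a series up to 38 µM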
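Compound fluorescence was measured in 100 mM Tris buffer, pH 8.0, after 15 min at room temperature, using 570 nm excitation and 671 nm emission filters. Signal was normalized to a per-plate Alexa 647 standard curve and expressed as dye-equivalent concentration at each compound concentration.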
Resorufin fluor – compound fluoresces in the resorufin spectral region; Compound fluorescence, resorufin region 547/598 nm, buffer; stronger effect = higher value; max dye-equivalent concentration, M; hit rate 0.04% among 59,000; active = above 10 nM dye equivalent; inconclusive = 1 to 10 nM; inactive = 1 nM or less; a few of its hits are not listed in these tables; further: highest value over a series up to 38 µM
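Tris 100 mM pH 8.0; compound added, 15 min RT; CCD imager read, ex 547 nm/em 598 nm; signal normalized to resorufin standard curve (six concentrations per plate) as dye-equivalent concentration.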
TSHR agonist – TSH receptor (human) agonism. HEK293-CNG-TSHR cells (CNG channel as cAMP sensor), membrane potential dye, cAMP. Potency, µM (top dose mostly 57.1 µM), for inactives: at the top dose activation, most hits filed as activators. hit rate 0.48% among 73,000. AID 926; active = well fitted activation curve of enough size with the parental cells flat; inconclusive = any curve in the parental cells; inactive = parental cells flat and receptor cells flat or falling; further: potency means the concentration at half of the fitted maximal effect; % of control where 0% means no effect; weak receptor curves with flat parental cells got no call and are not listed
Target sequence (P16473 whole entry, looked up): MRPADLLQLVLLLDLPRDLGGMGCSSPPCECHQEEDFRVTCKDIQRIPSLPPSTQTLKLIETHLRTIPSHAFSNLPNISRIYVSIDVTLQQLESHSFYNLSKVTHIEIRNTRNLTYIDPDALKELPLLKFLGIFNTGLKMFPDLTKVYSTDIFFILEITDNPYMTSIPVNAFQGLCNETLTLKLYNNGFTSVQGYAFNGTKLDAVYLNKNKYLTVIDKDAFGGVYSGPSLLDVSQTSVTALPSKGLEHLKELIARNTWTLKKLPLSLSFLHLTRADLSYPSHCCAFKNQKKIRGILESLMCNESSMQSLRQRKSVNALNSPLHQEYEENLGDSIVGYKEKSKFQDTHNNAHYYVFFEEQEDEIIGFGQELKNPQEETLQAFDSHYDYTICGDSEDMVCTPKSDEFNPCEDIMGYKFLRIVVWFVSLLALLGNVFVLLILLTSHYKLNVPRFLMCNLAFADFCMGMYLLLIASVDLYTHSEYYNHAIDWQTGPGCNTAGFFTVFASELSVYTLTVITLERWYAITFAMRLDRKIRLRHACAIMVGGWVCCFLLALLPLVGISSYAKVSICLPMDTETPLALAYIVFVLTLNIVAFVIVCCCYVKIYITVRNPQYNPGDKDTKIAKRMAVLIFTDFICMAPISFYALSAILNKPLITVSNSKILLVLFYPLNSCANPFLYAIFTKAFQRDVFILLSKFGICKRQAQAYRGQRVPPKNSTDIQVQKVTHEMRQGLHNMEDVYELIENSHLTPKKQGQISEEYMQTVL
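HEK 293 cells stably expressing TSHR and a modified CNG channel, with CNG-only parental cells as counterscreen, were preloaded 60 min at room temperature with membrane potential dye containing 100 uM RO 20-1724. Compound exposure was 30 min, and depolarization was read as fluorescence at 590 nm.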
Starred values were filed as active, the others as inactive; i = inactive; u = inconclusive; x = no result given; [ ] = dose if it differs, or a comment. Not all compounds are listed; rates above refer to the full screens.

SMILES	A488 autofl	AID923	A647 autofl	Resorufin fluor	TSHR agonist
CCc1ccccc1N(CC(=O)Nc1cccc(N(C)S(C)(=O)=O)c1)S(C)(=O)=O	i	-1.8%	3.5e-09	i	-6%
CCc1nnc(N2CCN(c3ncnc4c3oc3ccccc34)CC2)s1	i	-1.3%	1e-09	i	15%
COc1cc(OC)cc(-c2cc3nc4c(c(N5CCN(c6cnccn6)CC5)n3n2)CCCC4)c1	i	1.0%	7.8e-09	i	x
COCC(=O)Nc1cccc(Br)c1	i	-2.6%	3.1e-08	i	-4%
COCCCNC(=O)c1c(N)n(/N=C/c2cccs2)c2nc3ccccc3nc12	i	x	1.9e-08	i	x
COC(=O)c1ccc(C(/C=C/[C@@H](C)C(=O)NCc2ccccc2)NC(=O)OCc2ccccc2)cc1 (some centres undefined)	x	-1.9%	x	x	u
COC(=O)c1ccccc1NC(=O)Nc1cnccn1	i	-2.5%	1e-09	i	0%
O=c1cc(CO)oc(CN2CCC(Cc3ccccc3)CC2)c1O	i	-0.2%	2.2e-08	i	1%
O=c1ccn([C@@H]2O[C@@H](COP(=O)(O)OP(=O)(O)O)[C@H](O)[C@@H]2O)c(=O)[nH]1	i	-2.3%	1e-09	i	u
CCN(CC)S(=O)(=O)c1cccc(C(=O)N2CCCCC2)c1	i	1.0%	1e-09	i	u
Cc1nn(CC(=O)Nc2ccccn2)c(=O)c2ccccc12	i	-1.4%	3.5e-08	i	x
CCCC(=O)Nc1nnc(COC)s1	i	0.0%	1.4e-08	i	-13%
COc1ccccc1-c1cc(C2CC2)nc(N)c1C#N	x	-3.7%	x	x	u
COC(=O)c1nc2n(n1)C(c1cccc(Cl)c1)C1=C(CC(C)(C)CC1=O)N2 (centres undefined)	x	-0.6%	x	x	2%
CN(CCc1ccccn1)S(=O)(=O)c1ccccc1F	i	1.1%	1e-09	i	-3%
CN1CCN(CCN2CCn3c2nc2ccccc23)CC1	i	1.1%	3.9e-08	i	8%
CC(C)(C)n1nnnc1C(c1cccc(C#N)c1)N1CCC(Cc2ccccc2)CC1 (centres undefined)	i	-5.0%	1.3e-08	i	u
O=C1C(C=NCCCN2CCCC2=O)=C(O)c2ccccc21	i	1.9%	7e-09	i	-16%
CC(C)C(=O)Nc1cccc(C(=O)NCc2ccc(S(N)(=O)=O)cc2)c1	i	0.3%	2.4e-09	i	u
Cc1ccc(S(=O)(=O)C2(C(=O)NCc3ccc4c(c3)OCO4)CC2)cc1	x	0.3%	x	x	0%
COc1cc(OC)cc(C(=O)Nc2cccc(NC(C)=O)c2)c1	x	1.0%	x	x	7%
c1ccc(Nc2nc(-c3ccncc3)cs2)nc1	x	1.8%	x	x	-7%
COC(=O)CCC(=O)N1CCc2cc(S(=O)(=O)N3CCc4ccccc43)ccc21	i	-2.4%	1e-09	i	3%
CCOC(=O)c1cccc(NC(=O)C2CCCN(S(=O)(=O)c3cnc[nH]3)C2)c1 (centres undefined)	x	-0.6%	x	x	5%
COc1ccc(NC(=O)C2CCCN2S(=O)(=O)c2ccc3c(c2)CCC(=O)N3)cc1 (centres undefined)	x	3.2%	x	x	-1%

Ordered by length of the SMILES (highest first): some entries from above.
SMILES	A488 autofl	AID923	A647 autofl	Resorufin fluor	TSHR agonist
COC(=O)c1ccc(C(/C=C/[C@@H](C)C(=O)NCc2ccccc2)NC(=O)OCc2ccccc2)cc1 (some centres undefined)	x	-1.9%	x	x	u
COc1cc(OC)cc(C(=O)Nc2cccc(NC(C)=O)c2)c1	x	1.0%	x	x	7%
CN1CCN(CCN2CCn3c2nc2ccccc23)CC1	i	1.1%	3.9e-08	i	8%

Later entries
SMILES	A488 autofl	AID923	A647 autofl	Resorufin fluor	TSHR agonist
CC(=O)NC(=O)NC1CSCC1OC(C)=O (centres undefined)	i	3.0%	1e-09	i	-1%
CC(C)(C)NC(=O)NC(=O)COc1ccccn1	i	-0.4%	4.9e-09	i	u
COc1ccccc1CNC(=O)CC(NS(=O)(=O)c1ccc(C)cc1)c1ccco1 (centres undefined)	i	-0.8%	1e-09	i	4%[11.4 µM]
CCCC1CCC(C(=O)Nn2c(C)nc3ccccc3c2=O)CC1 (centres undefined)	i	0.9%	1e-09	i	23%
S=C(c1ccc(N2CCOCC2)cc1)N1CCCCC1	i	1.0%	2.6e-09	i	-3%
CCCCN1CCC[C@@H]1CNC(=O)c1cc(C#N)c2ccccc2c1OC	x	-3.1%	x	x	12%
Cc1ccc(-n2ncc3c(=O)[nH]c(SCC(=O)N4CCCC4)nc32)cc1C	x	0.0%	x	x	1%
Cc1nn(Cc2ccccc2Cl)c(C)c1N	i	0.8%	4e-08	i	5%
COc1cc2[nH]c(=S)n(CC3CCCO3)c(=O)c2cc1OC (centres undefined)	i	-1.1%	1e-09	i	1%
O=C(CSc1nnc(-c2ccc(S(=O)(=O)N3CCOCC3)cc2)o1)c1ccccc1F	i	-0.1%	1.4e-08	i	5%
CCOP(=O)(c1ccc(N(C)C)cc1)C(O)c1ccc(Cl)cc1 (centres undefined)	i	0.0%	1.4e-08	i	15%
O=C(CN1CCN(C(=O)c2ccco2)CC1)Nc1ccc(Cl)c(C(F)(F)F)c1	i	0.1%	1e-09	i	7%
O=C(CN1C(=O)c2cccc3cccc1c23)N1CCN(c2cccc(Cl)c2)CC1	i	1.3%	2.9e-09	i	x
Cn1c(Cn2c(=O)sc3ccccc32)nnc1SCC(=O)NCC1CCCO1 (centres undefined)	x	-1.9%	x	x	0%
NCCCCCc1nnc(SC/C=C/c2ccccc2)o1	i	2.5%	2.1e-09	i	11%
Cc1ccc(Cl)cc1N(CC(=O)N1CCCCCC1)S(C)(=O)=O	x	1.6%	x	x	u
O=C(Nc1ccc(Cl)cc1)N1CCN(c2ccc3nnc(-c4ccc(F)cc4)n3n2)CC1	x	-1.6%	x	x	u
COc1cc(C2c3c(-c4cc(C)cc(C)c4O)n[nH]c3C(=O)N2CCCO)cc(OC)c1OC (centres undefined)	i	-1.6%	1.3e-08	i	14%
COc1ccccc1NC(=O)CSc1nnc(Cc2cc(=O)[nH]c(=O)[nH]2)n1-c1ccccc1	i	0.5%	3.9e-08	i	-3%
CN1[C@@H]2CC[C@H]1CC(OC(=O)c1c[nH]c3ccccc13)C2 (some centres undefined)	i	-0.4%	1.5e-09	i	9%
COc1ccc(NC(=O)N(Cc2cc3cc(OC)ccc3[nH]c2=O)CC2CCCO2)cc1 (centres undefined)	i	-0.5%	3.2e-08	i	7%
CCOC(=O)C1=C(CSc2nc(C)ccc2C#N)OC(N)=C(C#N)C1c1cccc(OC)c1OC (centres undefined)	i	14%	4.9e-08	i	13%
CCC(OC(=O)CC1Sc2ccccc2NC1=O)C(=O)NCC1CCCO1 (centres undefined)	i	-0.8%	5.7e-09	i	-3%
Cc1cc(=O)[nH]c(N2CCN(Cc3ccccc3)CC2)n1	i	-0.5%	9.2e-09	i	u
O=C(NCc1ccccc1)NC1CCCCC1	i	0.0%	3.2e-09	i	-16%

Just TSHR agonist, for some of the entries so far:
canonical_smiles	TSHR agonist
CCc1nnc(N2CCN(c3ncnc4c3oc3ccccc34)CC2)s1	15%
Cc1ccc(Cl)cc1N(CC(=O)N1CCCCCC1)S(C)(=O)=O	u

The list goes on:
SMILES	A488 autofl	AID923	A647 autofl	Resorufin fluor	TSHR agonist
CN(C)C1CCN(C(=O)c2ccc(-n3c(=O)c(=O)[nH]c4ccccc43)cc2)C1 (centres undefined)	x	4.3%	x	x	-5%
COC(=O)c1cc(-c2ccc(OC)c(OC)c2)on1	i	-0.1%	1e-09	i	15%
CC1Cc2nc(SCC(=O)Nc3ccc4c(c3)OCO4)n(Cc3ccccc3)c(=O)c2S1 (centres undefined)	i	3.1%	2.7e-08	i	5%
CCOC(=O)C1CCN(Cc2ccc(OC)c(C)c2OC)CC1	x	0.7%	x	x	4%[11.4 µM]
Cc1cc2nncn2c(Cc2ccccc2)n1	i	x	1e-09	i	x
CCn1c(=O)cc(OCC(=O)NCc2ccc(C)o2)c2ccccc21	i	-0.3%	1e-09	i	0%[11.4 µM]
COC(=O)[C@@]1(Cc2ccc(OC)cc2)[C@H]2c3cc(C(=O)N(C)C)n(C)c3C[C@H]2CN1C(=O)c1ccccc1	x	-2.5%	x	x	u
COc1ccc(NC(=O)CCCCC#Cc2ccccc2)cc1	x	-0.5%	x	x	u
C1CCN=C(Nc2nn[nH]n2)CC1	i	0.1%	4.9e-09	i	7%
Cn1c(=O)c2[nH]c(CCNC(=O)c3ccccc3)nc2n(C)c1=O	i	-2.9%[11.5 µM]	1e-09	i	3%[11.4 µM]
COc1ccccc1NC(=O)CN1CCN(CC(=O)Nc2ccc(Cl)c(C(F)(F)F)c2)CC1	i	-1.7%	1e-09	i	9%
CCN(CCNC(=O)Nc1ccc(Cl)cc1)c1ccccc1	i	0.3%	2.3e-08	i	7%
O=C(Cn1cnc2ccccc2c1=O)Nc1ccc(-c2nnc3n2CCCCC3)cc1	i	0.4%	1e-09	i	-8%
CCOc1ccc(S(=O)(=O)N(C)c2ccc(OCC(=O)Nc3ccc4[nH]c(=O)[nH]c4c3)cc2)cc1	i	1.5%	1.1e-09	i	10%
COc1ccc2c(c1)N1CCN=C1N2C	i	-0.7%	2.5e-08	i	0%
Cc1nn2c(-c3ccncc3)nnc2c2ccccc12	i	-0.9%	2.2e-08	i	-3%
O=C(O)CCCNC(=O)OCc1ccccc1	i	-2.5%	3.7e-08	i	0%
COc1ccc(N2C(=O)CCC(C(=O)NCc3ccccn3)C2c2ccc(OC)c(OC)c2)cc1 (centres undefined)	i	-1.5%	2.5e-08	i	13%[11.4 µM]
Cc1ccc(-c2noc(-c3ccccc3C(=O)NCC3CCCO3)n2)cc1 (centres undefined)	i	1.7%	1e-08	i	19%
CC(C)(C)OC(=O)N[C@@H](Cc1ccccc1)c1nnc(S(=O)(=O)Cc2ccccc2)o1	i	-1.3%	1e-09	i	u
COc1ccc(N(CC(=O)NCc2cccs2)S(=O)(=O)c2c(C)n[nH]c2C)cc1	i	-0.8%	9.1e-09	i	2%
CC(=O)N1CCN=C1SCc1ccc(F)cc1	x	2.7%	x	x	3%
COc1ccccc1NC1SC(=O)N(c2ccccc2)C1=O (centres undefined)	i	0.4%	2.3e-08	i	-9%
CC(C)C[C@@H](NC(=O)OCC1c2ccccc2-c2ccccc21)C(=O)O	x	-2.5%	x	x	19%
CCOC(=O)N1CCN(C(=O)COc2ccc(S(=O)(=O)NC3CCCCC3)cc2C)CC1	i	0.0%	9.2e-09	i	-3%

Some of the entries above, set out differently.
> COc1ccc(N2C(=O)CCC(C(=O)NCc3ccccn3)C2c2ccc(OC)c(OC)c2)cc1 (centres undefined)
  A488 autofl = i; AID923 = -1.5%; A647 autofl = 2.5e-08; Resorufin fluor = i; TSHR agonist = 13%[11.4 µM]

> Cc1ccc(-c2noc(-c3ccccc3C(=O)NCC3CCCO3)n2)cc1 (centres undefined)
  A488 autofl = i; AID923 = 1.7%; A647 autofl = 1e-08; Resorufin fluor = i; TSHR agonist = 19%

Later entries:
SMILES	A488 autofl	AID923	A647 autofl	Resorufin fluor	TSHR agonist
CCOC(=O)CSC1=C(C#N)C(=O)NC(c2ccc(OC)c(OC)c2)S1 (centres undefined)	i	x	1e-09	i	x
N#Cc1ccc(CN2CCCC3(CCN(C(=O)c4cnccn4)CC3)C2)cc1	i	-0.3%	1e-09	i	18%
Cc1cc(C)nc(SCc2nnc(SCC(=O)Nc3ccc(C)c(C)c3)o2)n1	i	-1.5%	5e-08	i	7%
COC(=O)c1sc2nc(CN3CCOCC3)nc(N3CCOCC3)c2c1C	i	1.6%	2.9e-08	i	-8%
COc1ccc2[nH]cc(CCNc3ccnc(-c4cccc(C#N)c4)n3)c2c1	i	-0.3%	9.2e-09	i	u
CCOC(=O)c1cccc(NC(=O)c2ccco2)c1	x	1.4%	x	x	1%
Cc1ccc(NS(=O)(=O)c2cc(C(=O)O)ccc2Cl)cc1	i	-0.3%	2.9e-08	i	6%

Screens (PubChem BioAssay)
